Compound activity as filed in PubChem.
STK33 kinase inh: inhibitors of purified STK33 kinase, primary screen, biochemical, ADP-Glo luminescence, homogeneous, cell-free; Serine/threonine-protein kinase 33 (Homo sapiens), Q9BYT3; MBP phosphorylation; inhibition, % at 10 µM; 0.073% of 320,000 active;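 active means inhibition at or above 25%, using the most active replicate where run in duplicate; inactive means inhibition below 25%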
Target sequence (Q9BYT3 whole entry, looked up): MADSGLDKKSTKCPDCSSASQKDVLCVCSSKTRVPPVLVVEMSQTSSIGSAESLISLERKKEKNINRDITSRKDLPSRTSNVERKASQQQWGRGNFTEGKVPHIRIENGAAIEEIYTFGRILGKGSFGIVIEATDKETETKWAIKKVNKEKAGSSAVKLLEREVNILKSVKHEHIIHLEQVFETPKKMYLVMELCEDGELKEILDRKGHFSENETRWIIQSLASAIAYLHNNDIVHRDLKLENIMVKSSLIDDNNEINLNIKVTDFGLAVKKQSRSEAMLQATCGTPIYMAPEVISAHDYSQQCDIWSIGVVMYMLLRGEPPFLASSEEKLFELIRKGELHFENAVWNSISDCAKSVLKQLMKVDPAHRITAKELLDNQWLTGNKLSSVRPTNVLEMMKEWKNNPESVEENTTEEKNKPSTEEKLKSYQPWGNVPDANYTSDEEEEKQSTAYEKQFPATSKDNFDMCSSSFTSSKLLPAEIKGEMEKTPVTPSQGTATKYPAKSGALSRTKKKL
An asterisk follows results filed as active. Some of the compounds tested; most or all hits stand in other tables.

entry	SMILES	STK33 kinase inh
1	COC(=O)C1=C(c2ccccc2)C[C@@H]2CC[C@H]1N2C(=O)NC1CCCCC1	-0.9
2	CCCN1CC(C)C(OC(C)=O)(c2ccccc2)CC1C (configuration not stated)	-0.2
3	COc1cc2c3cc1Oc1cc(ccc1O)C[C@@H]1c4c(cc(OC)c(O)c4Oc4ccc(cc4)C[C@H]3N(C)CC2)CCN1C	0.8
4	CC(C)c1ccc(N2C(=O)NC(=O)/C(=C/C=C/c3ccco3)C2=O)cc1	0.8
5	CN1C(=O)N(C)C(=O)C2(Cc3cc([N+](=O)[O-])ccc3N(C)C2)C1=O	-1.4
6	COC(=O)C1=C(c2ccc(Cl)c(C(F)(F)F)c2)C[C@@H]2CC[C@H]1N2C(=O)NCc1ccc2c(c1)OCO2	-1.3
7	COc1ccc(-n2c(SC)nc3ccccc3c2=O)cc1	0.3
8	Cc1cc(OC(=O)N(C)C)nc2c1c(C)nn2C	-0.3
9	CN1C(=O)C(=Cc2ccc(N3CCCCCC3)cc2)C(=O)N(C)C1=O	-0.4
10	c1ccc2c(c1)OCC(C1=NCCN1)O2 (configuration not stated)	-1.3
11	O=C(COc1ccc(Cl)cc1)N1CCN(C2CCCC2)CC1	-0.9
12	CC(C)OC12Oc3ccccc3C=C1N1CCC2CC1 (configuration not stated)	0.2

Next results:
entry	SMILES	STK33 kinase inh
13	COc1ccc2[nH]c3c(c2c1)CCN[C@H]3C	0.3
14	Cc1ccc(C2SCC(=O)Nc3c2c(=O)[nH]n3C2CCOC(C)(C)C2)cc1 (configuration not stated)	-0.7
15	COc1cccc(CN2CCNCC2)c1	-0.8
16	NC(=O)Nc1ccc(C(=O)OCC(=O)Nc2ccc(Cl)cc2C(=O)c2ccccc2)cc1	1.4
17	O=C(Oc1c(Cl)cc(Cl)c2ccccc12)N1CCCCC1	1.3
18	CN1C(=O)C(=Cc2ccc(N3CCCCC3)o2)C(=O)N(C)C1=S	-0.7
19	O=C(CCc1ccccc1)N1C[C@H]2C[C@@H](C1)c1cccc(=O)n1C2	-0.5
20	Cc1cccc(CN2CCN(Cc3ccc(Cl)cc3)CC2)c1	-0.2
21	Cc1cc(/C=C2\C(=O)NC(=O)N(Cc3ccccc3Cl)C2=O)c(C)n1-c1ccc(C(=O)O)cc1	2.0
22	COc1ccccc1N1CCN(Cc2ccc3c(c2)OCO3)CC1	-0.8
23	CCOC(=O)c1cccc(NC(=O)c2c(O)[nH]c(=O)[nH]c2=O)c1	-1.7
24	CC(C)c1oc(=O)cc2c1[C@@H](O)[C@H]1OC(=O)[C@@]3(C)CC[C@@H](O)[C@@]2(C)C13 (some centres not stated)	0.1

25) CC(=NCc1ccc2c(c1)OCO2)c1c(O)[nH]c(=O)[nH]c1=O
  STK33 kinase inh = 0.0

26) Cc1cc(S(=O)(=O)NC(C)C)ccc1OCC(=O)N1CCN(Cc2ccc3c(c2)OCO3)CC1
  STK33 kinase inh = -1.9

27) COC(=O)C1=C(c2cc3ccccc3s2)C[C@@H]2CC[C@H]1N2C(=O)NC1CCCCC1
  STK33 kinase inh = -3.2

28) CCCc1[nH]nc2c1C1(C(=O)N(Cc3ccccc3)c3ccccc31)C(C(=O)OC)=C(N)O2 (configuration not stated)
  STK33 kinase inh = 1.1

29) Cn1c(=O)c2c(ncn2CCCl)n(C)c1=O
  STK33 kinase inh = 0.5

30) COc1cc(N)c(Cl)cc1C(=O)NC1CN2CCC1CC2 (configuration not stated)
  STK33 kinase inh = -4.5

31) O=C(Cc1ccccc1[N+](=O)[O-])N1CCN(Cc2ccc3c(c2)OCO3)CC1
  STK33 kinase inh = -0.5

32) Cc1ccc(NC(=O)c2cn(CCC#N)nc2-c2ccc3c(c2)OCCO3)c([N+](=O)[O-])c1
  STK33 kinase inh = -0.2

33) O=C1NC(=O)N(c2ccccc2)C(=O)/C1=C/c1coc2ccc(O)cc2c1=O
  STK33 kinase inh = 2.3

34) Fc1ccc(CNCCc2ccccc2)cc1
  STK33 kinase inh = -0.1

35) CCOc1ccccc1-n1c(O)c(C=Nc2ccc(N(CC)CC)cc2)c(=O)[nH]c1=O
  STK33 kinase inh = -0.3

36) COC(=O)C1=C(c2cccc(OCc3ccccc3)c2)C[C@@H]2CC[C@H]1N2C(=O)NCc1cc(C)oc1C(F)(F)F
  STK33 kinase inh = -1.1

37) C[C@]12CCC3C(CC[C@H]4C[C@H](OC(=O)c5cccnc5)CC[C@]34C)C1CCC2=O (some centres not stated)
  STK33 kinase inh = 0.4

38) CSc1nnc([C@@H](N)Cc2c[nH]c3ccccc23)o1
  STK33 kinase inh = -1.3

39) NC1=C([N+](=O)[O-])C(c2ccc3c(c2)OCO3)c2c(c3ccccc3oc2=O)O1 (configuration not stated)
  STK33 kinase inh = -1.4

40) Cn1c(=O)c2c(nc(N/N=C/c3c(O)n(C4CCCCC4)c(=S)[nH]c3=O)n2C)n(C)c1=O
  STK33 kinase inh = -3.7

41) Cc1sc2ncn(CC(=O)NCCCC(=O)N3CCC4(CC3)OCCO4)c(=O)c2c1C
  STK33 kinase inh = -2.1

42) O=C(c1ccccc1)N1CCC2(CC1)OCCO2
  STK33 kinase inh = -1.9

43) COC(=O)C1=C(c2ccc(Cl)c(C(F)(F)F)c2)C[C@@H]2CC[C@H]1N2C(=O)NCCO
  STK33 kinase inh = -1.1

Molecules above that contain nitrogen in an aromatic ring, in the order listed:
7) COc1ccc(-n2c(SC)nc3ccccc3c2=O)cc1
  STK33 kinase inh = 0.3

8) Cc1cc(OC(=O)N(C)C)nc2c1c(C)nn2C
  STK33 kinase inh = -0.3

13) COc1ccc2[nH]c3c(c2c1)CCN[C@H]3C
  STK33 kinase inh = 0.3

14) Cc1ccc(C2SCC(=O)Nc3c2c(=O)[nH]n3C2CCOC(C)(C)C2)cc1 (configuration not stated)
  STK33 kinase inh = -0.7

19) O=C(CCc1ccccc1)N1C[C@H]2C[C@@H](C1)c1cccc(=O)n1C2
  STK33 kinase inh = -0.5

21) Cc1cc(/C=C2\C(=O)NC(=O)N(Cc3ccccc3Cl)C2=O)c(C)n1-c1ccc(C(=O)O)cc1
  STK33 kinase inh = 2.0

23) CCOC(=O)c1cccc(NC(=O)c2c(O)[nH]c(=O)[nH]c2=O)c1
  STK33 kinase inh = -1.7

25) CC(=NCc1ccc2c(c1)OCO2)c1c(O)[nH]c(=O)[nH]c1=O
  STK33 kinase inh = 0.0

28) CCCc1[nH]nc2c1C1(C(=O)N(Cc3ccccc3)c3ccccc31)C(C(=O)OC)=C(N)O2 (configuration not stated)
  STK33 kinase inh = 1.1

29) Cn1c(=O)c2c(ncn2CCCl)n(C)c1=O
  STK33 kinase inh = 0.5

32) Cc1ccc(NC(=O)c2cn(CCC#N)nc2-c2ccc3c(c2)OCCO3)c([N+](=O)[O-])c1
  STK33 kinase inh = -0.2

35) CCOc1ccccc1-n1c(O)c(C=Nc2ccc(N(CC)CC)cc2)c(=O)[nH]c1=O
  STK33 kinase inh = -0.3

37) C[C@]12CCC3C(CC[C@H]4C[C@H](OC(=O)c5cccnc5)CC[C@]34C)C1CCC2=O (some centres not stated)
  STK33 kinase inh = 0.4

38) CSc1nnc([C@@H](N)Cc2c[nH]c3ccccc23)o1
  STK33 kinase inh = -1.3

40) Cn1c(=O)c2c(nc(N/N=C/c3c(O)n(C4CCCCC4)c(=S)[nH]c3=O)n2C)n(C)c1=O
  STK33 kinase inh = -3.7

41) Cc1sc2ncn(CC(=O)NCCCC(=O)N3CCC4(CC3)OCCO4)c(=O)c2c1C
  STK33 kinase inh = -2.1
